Screening data as filed in PubChem BioAssay.
INS promoter inh – inhibitors of insulin promoter-driven GFP, primary screen, imaging, TRM-6 cells (human fetal islet line), eGFP reporter, cell count | reporter expression induced with tamoxifen | inhibition, % at 2 µM | actives 0.9% (n = 130,000);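 active = inhibition above the mean plus 3 SD, with well images judged a real hit on visual review, cut at about 60% in these data, passing the limit was not always enough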
GALR2 ag – GALR2 receptor agonists, primary screen, cell-based; Galanin receptor type 2 (Homo sapiens), O43603; GALR2-expressing cells, agonist activation read-out; activation, %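 (tested at 5 µM)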; actives 0.48% (n = 140,000);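 active = above mean plus 3 SD of all compounds, about 5% in these data, not always enough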;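 also: 0% = vehicle buffer wells and 100% = reference agonist at full effect; tested in CHO reporter cells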
Target sequence (O43603 whole entry, looked up): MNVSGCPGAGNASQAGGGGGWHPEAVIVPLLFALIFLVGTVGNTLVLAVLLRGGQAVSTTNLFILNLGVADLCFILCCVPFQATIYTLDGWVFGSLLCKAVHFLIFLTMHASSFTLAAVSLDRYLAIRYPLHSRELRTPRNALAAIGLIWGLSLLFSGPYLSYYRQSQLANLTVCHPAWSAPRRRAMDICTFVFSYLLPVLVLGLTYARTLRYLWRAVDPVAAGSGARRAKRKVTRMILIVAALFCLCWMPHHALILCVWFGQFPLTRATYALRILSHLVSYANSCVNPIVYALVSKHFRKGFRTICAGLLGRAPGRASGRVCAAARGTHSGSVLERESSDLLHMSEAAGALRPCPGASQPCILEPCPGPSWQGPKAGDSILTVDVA
RGS16-Gao – modulators of RGS16 binding to Galphao, primary screen, biochemical, human proteins, multiplexed bead flow cytometry. actives 0.38% (n = 220,000). binding response (% of control), % at 10 µM. Regulator of G-protein signaling 16 (Homo sapiens) + Guanine nucleotide-binding protein …. AID 1441, 2008. bead-based flow cytometry RGS16-Galphao binding, fluorescence; actives lie on both sides;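 active = below 25% or above 175%, edge rows of some plates excepted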;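 also: Galphao activated by GDP with aluminum fluoride before binding; 100% = wells without compound and 0% = beads without RGS; some results beyond the cut were filed as inactive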
Target sequence (O15492 whole entry, looked up): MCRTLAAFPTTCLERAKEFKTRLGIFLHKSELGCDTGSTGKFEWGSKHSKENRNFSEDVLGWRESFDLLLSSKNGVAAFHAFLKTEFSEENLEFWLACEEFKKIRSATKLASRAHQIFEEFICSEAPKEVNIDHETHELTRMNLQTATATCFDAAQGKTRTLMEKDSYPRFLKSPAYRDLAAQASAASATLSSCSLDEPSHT
Target sequence (P09471 whole entry, looked up): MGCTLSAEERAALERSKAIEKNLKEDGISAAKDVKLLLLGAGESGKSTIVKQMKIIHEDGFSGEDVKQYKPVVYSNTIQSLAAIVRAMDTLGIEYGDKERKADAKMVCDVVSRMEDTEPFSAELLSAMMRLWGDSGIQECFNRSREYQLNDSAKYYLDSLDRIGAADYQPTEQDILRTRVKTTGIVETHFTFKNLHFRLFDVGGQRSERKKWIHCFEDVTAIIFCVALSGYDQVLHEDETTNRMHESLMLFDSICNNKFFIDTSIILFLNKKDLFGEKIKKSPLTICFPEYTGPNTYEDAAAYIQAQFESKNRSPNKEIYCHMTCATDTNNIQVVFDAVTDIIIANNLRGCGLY
PKD1 kinase inh – inhibitors of human PKD1 kinase, biochemical, fluorescence polarization; inhibition, %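 (about 10 µM by stock and volumes)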; AID 797, 2007; actives 0.056% (n = 200,000); PKD1 kinase fluorescence polarization assay; Serine/threonine-protein kinase D1 (Homo sapiens), Q15139;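 active = inhibition of 50% or more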;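 also: controls were vehicle for no effect and a reference inhibitor for full effect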
HSV replic up – enhancers of HSV replication in host cells, fold increase, host cell viability; maximum fold increase; actives 0.005% (n = 220,000); HSV replication augmentation in cells;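 active = peak rise of 1.5-fold or more in the series; tested in PC3 cells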;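 also: first round at 10 µM; read as green reporter fluorescence; hits show the peak of a series up to 25 µM; 1 = signal of infected wells without compound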
INS promoter inh cell count – recorded beside INS promoter inh, whose call it bears; normalized cell count, %; measured here: cell count, toxicity; reference of the scale not given here;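 cells exposed to compound for 48 h; stained nuclei by imaging scaled within each plate; lower means fewer cells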
HSV replic up primary fold – also measured in HSV replic up; calls as there; fold increase; compound at 10 µM; measured here: primary screen fold increase 10 uM; tested in PC3 cells;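 GFP signal in the first replicate; 1 = infected wells without compound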
Active calls of the source: *; i = inactive; nt = no result given.

SMILES | INS promoter inh | INS promoter inh cell count | RGS16-Gao | GALR2 ag | HSV replic up | HSV replic up primary fold | PKD1 kinase inh
CCc1nnc(NC(=O)/C=C/c2ccc(C)o2)s1 | 11.1 | 170.3 | 103.0 | 0.2 | i | 1.02 | 4.5
Cc1c(-c2n[nH]c(=S)n2-c2ccc(Br)cc2)nnn1-c1ccc(Cl)cc1 | -94.1 | 113.3 | 103.3 | nt | i | 0.95 | -3.5
CCCS(=O)(=O)N1CCN=C1SCc1cccc(C)c1 | 38.5 | 51.2 | 100.8 | nt | i | 1.07 | 5.8
O=C(O)C(Cc1ccccc1)N1C(=O)/C(=C/c2ccccc2)SC1=S (configuration not stated) | -12.0 | 84.1 | 104.1 | -0.8 | i | 0.87 | -2.9
COc1ccc2[nH]cc(C(=O)CN(C)CCc3ccc(OC)c(OC)c3)c2c1 | -92.0 | 124.2 | 104.1 | -0.4 | i | 0.88 | -3.4
COc1ccc(CSc2nncn2C)cc1[N+](=O)[O-] | -32.0 | 159.1 | 112.0 | -0.5 | i | 0.96 | -6.3
CCOc1cc(C(=O)OCC(=O)NCc2ccco2)cc(OCC)c1OCC | 24.2 | 91.5 | 96.6 | -0.7 | i | 1 | 4.0
Cc1cccc(NC(=O)/C=C/c2ccc(Cl)cc2)n1 | -27.3 | 119.7 | 107.0 | -0.9 | i | 1.03 | -2.6
CC(NC(=O)c1ccccc1)C(=O)N/N=C/c1ccc(O)cc1 (configuration not stated) | 36.4 | 81.3 | 142.8 | nt | i | 1.05 | 3.8
C=CCNC(=O)c1cc(Cl)cc(Cl)c1 | -15.4 | 113.2 | 98.3 | nt | i | 0.99 | 0.2
O=C(NCC(c1cccnc1)N1CCN(c2ccccc2F)CC1)c1ccco1 (configuration not stated) | nt | nt | 106.2 | -1.8 | i | 0.81 | -2.6
O=C1NC(c2ccccc2)=NC1(NS(=O)(=O)c1ccccc1)C(F)(F)F (configuration not stated) | 13.3 | 101.8 | 104.0 | -0.8 | i | 1.01 | -8.7
O=C(Cc1cccc2ccccc12)NC(=S)Nc1cccc(C(=O)O)c1 | nt | nt | 104.0 | nt | i | 1.01 | -2.5
FC(F)C(F)(F)c1cc(-c2ccccc2)n[nH]1 | nt | nt | 87.5 | nt | i | 0.86 | nt
COC(=O)c1ccc(NC(=O)C2CCCO2)cc1 (configuration not stated) | nt | nt | 102.6 | -0.8 | i | 0.81 | -12.0
CCn1cc(C(=O)O)c(=O)c2cc(F)c(N/N=C/c3ccccc3[N+](=O)[O-])cc21 | nt | nt | 85.4 | 0.6 | i | 0.86 | 1.4

Random excerpt: 2 entries already listed.
SMILES | INS promoter inh | INS promoter inh cell count | RGS16-Gao | GALR2 ag | HSV replic up | HSV replic up primary fold | PKD1 kinase inh
C=CCNC(=O)c1cc(Cl)cc(Cl)c1 | -15.4 | 113.2 | 98.3 | nt | i | 0.99 | 0.2
O=C(Cc1cccc2ccccc12)NC(=S)Nc1cccc(C(=O)O)c1 | nt | nt | 104.0 | nt | i | 1.01 | -2.5

Later entries
SMILES | INS promoter inh | INS promoter inh cell count | RGS16-Gao | GALR2 ag | HSV replic up | HSV replic up primary fold | PKD1 kinase inh
CCOC(=O)Cc1csc(NC(=O)Cc2ccc(C)cc2)n1 | -42.9 | 92.4 | 106.6 | nt | i | 1.01 | 2.2
Cc1ncc(CN=Cc2ccc(Cl)cc2)c(N)n1 | nt | nt | 107.2 | nt | i | 1.08 | nt
Nc1ccccc1SCC1CSc2nc3ccccc3c(=O)n21 (configuration not stated) | -34.9 | 95.6 | 99.5 | nt | i | 1.05 | 4.0
Cc1nc(N)nc(Nc2ccc(Cl)cc2)c1Br | nt | nt | 102.0 | -1.2 | i | 0.77 | 0.3
Cc1ccc(C)c(NC(=S)c2ccc3ccccc3n2)c1 | 35.5 | 90.1 | 2.2* | -2.6 | i | 0.97 | 10.5
Cc1ccsc1C(=O)N/N=C/C=C/c1ccccc1[N+](=O)[O-] | 21.1 | 105.2 | 105.5 | -1.0 | i | 0.9 | -3.3
CCN(C(=O)c1ccc(Cl)c([N+](=O)[O-])c1)c1ccccc1 | nt | nt | 100.4 | nt | i | 0.95 | -5.2
CCOC(=O)c1c(C)[nH]c(C(=O)COC(=O)C(C)N2C(=O)C3CCCCC3C2=O)c1C (configuration not stated) | 2.3 | 156.0 | 66.2 | -1.5 | i | 0.92 | -7.3
O=C(CCCCCNC(=S)Nc1ccc(Cl)cc1)C[N+](=O)[O-] | nt | nt | 88.5 | nt | i | 0.88 | -1.9
c1ccc(-n2nnnc2-c2cccnc2)cc1 | 33.3 | 56.3 | 110.0 | nt | i | 0.92 | 0.3
NNC(=O)c1ccc(Cn2cc(Cl)cn2)o1 | nt | nt | 90.5 | nt | i | 1.2 | nt
Cc1nc2cc(C(=O)OCC(=O)NC34CC5CC(CC(C5)C3)C4)ccc2n1-c1ccccc1 | -23.3 | 121.6 | 103.1 | -0.8 | i | 0.93 | 0.5
O=C(CSc1cccc[n+]1[O-])Nc1ccc(N2CCOCC2)cc1 | nt | nt | 95.8 | nt | i | 1 | -2.3
CCOC(=O)N1CCN(C(=O)CSCC(=O)Nc2nc(-c3ccc(OC)cc3)cs2)CC1 | nt | nt | 103.7 | -2.4 | i | 0.99 | -2.8
O=C(NCC12CC3CC(CC(C3)C1)C2)c1cc2n(n1)C(C(F)(F)F)CC(c1ccco1)N2 (configuration not stated) | 18.2 | 127.8 | 98.0 | -2.7 | nt | nt | -7.3
CC(C)(C)NC(=O)/C=C/c1cccs1 | nt | nt | 100.6 | nt | i | 0.96 | 1.0
Cn1ncc2c(NNC(=O)Cc3ccccc3)ncnc21 | -27.3 | 159.7 | 104.5 | -0.6 | i | 0.89 | 8.7
CCSc1nnc(NC(=O)c2ccccn2)s1 | -177.8 | 6.7 | 97.3 | -0.6 | i | 0.657 | -9.7
O=S(=O)(c1cccs1)N1CCN(CC(O)COc2cc(Cl)ccc2Cl)CC1 (configuration not stated) | nt | nt | 102.4 | 0.1 | i | 0.55 | -1.4
Cc1cccc(C(=O)NC(=S)Nc2ccc3[nH]c(=O)[nH]c3c2)c1 | -11.1 | 103.5 | 101.9 | nt | i | 1.18 | 1.5
O=c1c2c(nc3nc(NCc4cccc(Cl)c4)[nH]n13)CCC2 | nt | nt | 99.7 | nt | i | 1.03 | 1.9
CCN(CC)S(=O)(=O)c1cccc(C(=O)/C=C2/N(C)c3ccccc3C2(C)C)c1 | -50.0 | 85.7 | 98.9 | 4.8 | i | 0.85 | 1.3
N#Cc1c(-c2ccccc2)c(-c2ccccc2)nn(CC(=O)NNC(=O)Nc2ccc(Cl)cc2)c1=O | nt | nt | 86.4 | nt | i | 0.66 | nt
CCOC(=O)CN1C(=O)N[C@@H](c2ccc(Br)cc2)C(C(=O)OC)=C1C | nt | nt | 102.3 | nt | i | 1.03 | nt
CCSc1ccccc1C(=O)Nc1cc(OC)c(OC)c(OC)c1 | 2.3 | 80.2 | 100.9 | nt | i | 1 | 7.5
Cc1occc1C(=O)N/N=C/c1ccc2c(c1)OCO2 | nt | nt | 105.0 | nt | i | 1.01 | nt
CN1CCN(Cc2c(O)ccc3cc(Br)ccc23)CC1 | 40.0 | 68.8 | 103.8 | nt | i | 0.72 | 5.5
COc1ccc(OC)c2c(C)cc(NCCN3CCOCC3)nc12 | -45.5 | 136.7 | 99.7 | -0.7 | i | 0.93 | -5.3
CCOc1cc(-c2nc3cc(C)ccn3c2NCC2CCCO2)ccc1O (configuration not stated) | -14.3 | 119.2 | 104.3 | -0.4 | i | 0.87 | -6.4
O=[N+]([O-])c1ccccc1Sc1nccn1Cc1ccccc1 | nt | nt | 51.7 | -0.6 | i | 1 | -4.3
Cc1cc(C(=O)OCC(=O)NC2CCS(=O)(=O)C2)c2ccccc2n1 (configuration not stated) | nt | nt | 95.0 | nt | i | 0.96 | -1.9
COc1ccc(C2=NC(=O)NC2c2ccc(OC)cc2)cc1 (configuration not stated) | nt | nt | 97.8 | nt | i | 0.91 | nt
CCOc1ccc(C(C)NC(=O)Cc2ccccc2F)cc1OCC (configuration not stated) | nt | nt | 95.5 | nt | i | 0.93 | 0.7
COc1cccc(Oc2ccc(OC)cc2C(=O)O)c1 | nt | nt | 95.2 | nt | i | 0.9 | nt
CCOC(=O)c1sc(NC(=O)CNCc2ccccn2)c(C(=O)OCC)c1C | nt | nt | 114.5 | nt | i | 0.89 | nt
CCN1C(=O)c2cccc3c(NC(=O)c4ccc(S(=O)(=O)N5CCOCC5)cc4)ccc1c23 | nt | nt | 98.9 | -1.9 | i | 0.93 | -3.5
COC(=O)c1cc2c(s1)-c1cc(F)ccc1OC2 | nt | nt | 102.0 | nt | i | 0.97 | nt
CCC(C)c1ccc2oc(-c3ccc(NC(=O)c4ncn[nH]4)cc3)nc2c1 (configuration not stated) | 31.2 | 100.2 | 116.7 | -1.2 | i | 0.64 | -2.6
Cc1cc(Cl)ccc1NC(=S)N1CCN(C(=O)C2CCCO2)CC1 (configuration not stated) | 14.8 | 89.7 | 108.9 | -1.5 | i | 1.01 | -7.6
C=CCNc1nc(N2CCOCC2)c(C#N)c2c1CN(C)CC2 | 16.7 | 88.1 | 105.0 | -0.3 | i | 1.03 | -5.7
O=C(CN1CCCCCC1)Nc1ccc(F)c(F)c1 | -118.8 | 123.6 | 105.7 | -2.9 | i | 0.94 | 7.0
COc1ccccc1CNC(=O)CCc1c(C)nc2cc(-c3ccccc3OC)nn2c1C | nt | nt | 103.2 | nt | i | 0.76 | nt
CCOC(=O)c1c(C)[nH]c(C(=O)NNC(=O)c2ccc(C(C)(C)C)cc2)c1C | 22.6 | 82.7 | 72.5 | 0.0 | i | 0.92 | 13.1
COc1ccc(N=Cc2ccc(CNS(=O)(=O)c3ccc(Cl)cc3)o2)cc1 | -30.8 | 100.2 | 96.8 | -1.8 | i | 0.93 | 5.3
COC(=O)c1ccccc1N=Nc1c(C)n[nH]c1C | nt | nt | 103.8 | nt | i | 1.05 | nt
CCN(C(=O)CSc1ccc2ccccc2c1)C1CCS(=O)(=O)C1 (configuration not stated) | -6.2 | 76.8 | 95.3 | -0.8 | i | 1 | -1.4
Nc1c(-c2ccccc2)cnc2ncnn12 | -8.9 | 62.3 | 101.4 | -0.5 | i | 0.87 | 5.9
CN(C)CCN(C)Cc1ccccc1Sc1cccc2ccccc12 | -29.4 | 106.0 | 93.7 | 0.4 | i | 0.76 | 4.7
CCc1nnc(NS(=O)(=O)c2ccc(N/C=C\C(=O)c3ccc(F)cc3)cc2)s1 | nt | nt | 108.3 | nt | i | 0.88 | 0.4
COc1ccc(Nc2oc(-c3ccc(F)cc3)nc2C#N)cc1 | nt | nt | 103.3 | nt | i | 0.98 | nt
CC(/C=C/c1ccccc1)=N\NC(=O)c1cc(C)[nH]n1 | 17.6 | 97.0 | 99.2 | nt | i | 0.87 | -5.0
COC(=O)COc1ccc(S(=O)(=O)N2CCCCC2)cc1[N+](=O)[O-] | 28.6 | 109.7 | 91.3 | nt | i | 0.99 | -10.1
CC1=N/C(=C\c2ccc([N+](=O)[O-])cc2)C(=O)N1c1cc(Cl)ccc1C | -30.0 | 122.9 | 106.2 | -1.9 | i | 1.05 | -12.3
O=C(CSc1n[nH]c(=O)[nH]c1=O)Nc1ccc2c(c1)C(=O)c1ccccc1C2=O | nt | nt | 99.1 | nt | i | 0.9 | nt
CC(C)CCn1c(=O)c2ccccc2n2c(CN(C)Cc3ccccc3)nnc12 | 40.9 | 62.1 | 100.9 | -0.3 | i | 0.82 | 1.5

Arranged by molecular weight (ascending): part of the list above
SMILES | INS promoter inh | INS promoter inh cell count | RGS16-Gao | GALR2 ag | HSV replic up | HSV replic up primary fold | PKD1 kinase inh
COc1ccc(Nc2oc(-c3ccc(F)cc3)nc2C#N)cc1 | nt | nt | 103.3 | nt | i | 0.98 | nt
CN(C)CCN(C)Cc1ccccc1Sc1cccc2ccccc12 | -29.4 | 106.0 | 93.7 | 0.4 | i | 0.76 | 4.7
CC1=N/C(=C\c2ccc([N+](=O)[O-])cc2)C(=O)N1c1cc(Cl)ccc1C | -30.0 | 122.9 | 106.2 | -1.9 | i | 1.05 | -12.3
COC(=O)COc1ccc(S(=O)(=O)N2CCCCC2)cc1[N+](=O)[O-] | 28.6 | 109.7 | 91.3 | nt | i | 0.99 | -10.1
CC(C)CCn1c(=O)c2ccccc2n2c(CN(C)Cc3ccccc3)nnc12 | 40.9 | 62.1 | 100.9 | -0.3 | i | 0.82 | 1.5
O=C(CSc1n[nH]c(=O)[nH]c1=O)Nc1ccc2c(c1)C(=O)c1ccccc1C2=O | nt | nt | 99.1 | nt | i | 0.9 | nt
CCc1nnc(NS(=O)(=O)c2ccc(N/C=C\C(=O)c3ccc(F)cc3)cc2)s1 | nt | nt | 108.3 | nt | i | 0.88 | 0.4
